# KCNQ2 inh: KCNQ2 potassium channel inhibitors, primary screen, cell-based, CHO-K1, FluxOR thallium flux, B-score (AID 2156); O88943; 20 min; stronger effect = lower value; only compounds with negative scores are shown here; some inactives read as strong as hits; B-score at 10 µM; hit rate 1.1% among 310,000;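 active = fluorescence ratio B-score at most minus 3 library SDs, with starting brightness B-score within 2 library SDs, cut at about -5.5 in these data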
# Target sequence (O88943 whole entry, looked up): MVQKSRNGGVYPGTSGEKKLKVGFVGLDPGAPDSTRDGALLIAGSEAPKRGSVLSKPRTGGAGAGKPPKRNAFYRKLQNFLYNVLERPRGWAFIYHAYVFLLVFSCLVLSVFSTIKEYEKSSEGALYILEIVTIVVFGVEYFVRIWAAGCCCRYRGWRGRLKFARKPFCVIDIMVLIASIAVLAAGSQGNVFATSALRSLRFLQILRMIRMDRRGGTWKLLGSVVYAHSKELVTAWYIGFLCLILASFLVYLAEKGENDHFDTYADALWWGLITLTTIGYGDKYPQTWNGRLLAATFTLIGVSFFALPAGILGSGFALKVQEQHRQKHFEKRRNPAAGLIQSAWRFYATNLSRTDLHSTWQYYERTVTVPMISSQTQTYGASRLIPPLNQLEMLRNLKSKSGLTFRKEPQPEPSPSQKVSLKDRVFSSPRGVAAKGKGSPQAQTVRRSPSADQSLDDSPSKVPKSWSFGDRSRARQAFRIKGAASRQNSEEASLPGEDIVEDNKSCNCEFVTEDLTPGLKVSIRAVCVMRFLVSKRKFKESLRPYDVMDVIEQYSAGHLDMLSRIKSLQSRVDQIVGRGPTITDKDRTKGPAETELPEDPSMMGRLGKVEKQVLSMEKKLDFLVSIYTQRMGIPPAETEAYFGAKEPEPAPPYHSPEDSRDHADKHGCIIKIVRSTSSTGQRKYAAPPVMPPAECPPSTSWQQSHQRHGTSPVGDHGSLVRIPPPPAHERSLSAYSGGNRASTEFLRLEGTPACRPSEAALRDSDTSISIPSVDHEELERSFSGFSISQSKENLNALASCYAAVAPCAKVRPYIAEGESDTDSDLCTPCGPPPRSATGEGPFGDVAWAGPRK
# KCNQ2 inh baseline: second read-out of KCNQ2 inh, no call of its own (marks repeat the call); B-score; measured here: initial fluorescence intensity artifact check;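 brightness before thallium and not channel activity; 0 = typical well and far values either way flag optical interference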
# The depositor's hits bear a star; i = inactive. A portion of the library; count on the stated rates, not on these rows.
mol | KCNQ2 inh | KCNQ2 inh baseline
CCO[C@H]1OC(C(=O)N2CCN(Cc3ccc4c(c3)OCO4)CC2)=C[C@@H](c2csc3ccccc23)[C@@H]1CCCO | i | 0.05
Cc1ccc(C(O)(CCN2CCCCC2)c2ccccc2)cc1 (stereo unspecified) | i | -1.4
CC1(C)CC2(CCO1)C(Nc1ccccc1)=NC(=S)N2CC(N)=O (stereo unspecified) | i | -0.38
CCOC(=O)c1c(S(=O)(=O)NCC2CCN(CCc3cccs3)CC2)c(C)n(C)c1C | i | -0.58
O=C(N/C(=C/c1cccnc1)C(=O)N1CCCCCC1)c1cccc(Br)c1 | i | 0.8
CN(c1ccc(C(=O)N2CCOCC2)cc1[N+](=O)[O-])C1CCCCC1 | i | 0.01
CCc1c(C)c2ccc(OC3CCCCC3=O)cc2oc1=O (stereo unspecified) | i | -0.86
CCn1cc(C(=O)NCc2ccc(C)o2)c2cc(OC)c(OC)cc2c1=O | i | 1.3
O=C(NCCc1nccs1)C1CCC(=O)N(Cc2cccc(C(F)(F)F)c2)C1 (stereo unspecified) | i | 1.1
CC(=O)Nc1ccc(SCC(=O)Nc2ccc(Cl)cn2)cc1 | i | 0.41
CCSc1nc2ccccc2c(=O)n1-c1c(C)n(C)n(-c2ccccc2)c1=O | i | 0.19
Cc1ccc(-c2nnc(SCC(=O)N3CCCC3)o2)cc1C | i | -1.3
CCC(C)(c1nnnn1-c1c(C)cccc1C)N(N=O)c1cccc(C(F)(F)F)c1 (stereo unspecified) | i | -0.17
CCc1cccc(C)c1NC(=O)CO/N=C(\N)CC(=O)NC1CCCCC1 | i | -1.2
CCOc1cccc(C(=O)Nc2cc(-c3nn4c(C)nnc4s3)ccc2C)c1 | i | 0.11
CC(C)CCN1CCN(Cc2ccc3nsnc3c2)CC1CCO (stereo unspecified) | i | -0.88
COc1ccccc1-c1nc(C#N)c(NCc2ccc(F)cc2)o1 | i | 1.8
CN(Cc1ccccc1)C(=O)CCC1CCN(S(=O)(=O)N(C)C)CC1 | i | 0.6
CCOc1ccc(/C=N/Nc2nc(N3CCCC3)nc(N3CCCC3)n2)cc1OC | i | 0.76
COC(=O)c1cc(S(=O)(=O)N2CCN(c3ccc(F)cc3)CC2)c[nH]1 | i | -0.62
Cc1ccc(S(=O)(=O)N2CCN(C(=O)c3ccc(Cl)nc3)CC2)cc1 | i | -0.03
O=C(OCc1nc2ccccc2s1)c1cccc(N2C(=O)CCC2=O)c1 | i | 0.63
Cc1ccc(NS(=O)(=O)c2ccc3[nH]c(=O)[nH]c3c2)c(C)c1 | i | -0.39
O=c1[nH]c(-c2ccccc2O)nc2c1CCCC2 | i | -0.07
CN(CC(=O)Nc1c(Cl)cccc1Cl)C(=O)c1ccccc1-c1nc2ccccc2s1 | i | -0.08

# Random excerpt: three compounds from above.
mol | KCNQ2 inh | KCNQ2 inh baseline
CC1(C)CC2(CCO1)C(Nc1ccccc1)=NC(=S)N2CC(N)=O (stereo unspecified) | i | -0.38
CN(Cc1ccccc1)C(=O)CCC1CCN(S(=O)(=O)N(C)C)CC1 | i | 0.6
CCO[C@H]1OC(C(=O)N2CCN(Cc3ccc4c(c3)OCO4)CC2)=C[C@@H](c2csc3ccccc23)[C@@H]1CCCO | i | 0.05

# Next section:
mol | KCNQ2 inh | KCNQ2 inh baseline
C1=CC2CC1CC2CNCc1ccco1 (stereo unspecified) | i | 3.3
COC(=O)CN1C(=O)[C@H]2[C@@H](C3CC3)N3C(=O)CN(Cc4ccc(-c5ccccc5)cc4)C(=O)[C@@]3(Cc3ccccc3)[C@H]2C1=O | i | -0.22
CC(=O)Nc1ccc(Sc2ncnc3scc(-c4ccccc4)c23)cc1 | i | 2.3
CC(OC(=O)c1cc(Br)ccc1O)C(=O)NCc1ccc2c(c1)OCO2 (stereo unspecified) | i | 0.08
COc1ccc(OC)c(/C(C)=N\NC(=O)c2cc3cc(Cl)ccc3n2C)c1 | -8.1* | 1*
CCN1CCc2c(OCC(=O)N3N=C(c4cccs4)CC3c3ccc(F)cc3)cccc2C1=O (stereo unspecified) | i | 1.1
Cc1ccc(C)c(NC(=S)c2ccccn2)c1 | i | -0.04
Cc1nc2ccccn2c1CN(C)C(=O)C1CCC(=O)N(CCc2cccc(F)c2)C1 (stereo unspecified) | i | 1.1
COc1ccc(COc2cc(-c3cccc(OC)c3)nc3ccc(NC(=O)c4ccc(C)cc4)cc23)cc1 | i | -3.3
CC1CCCCN1C(=O)COC(=O)CNC(=O)c1ccc(Cl)cc1Cl (stereo unspecified) | i | -0.62
COc1ccc(-c2cc(-c3ccccc3)nc(N3CCCC3)n2)cc1OC | i | 1.3
Cc1cc(C)n2nc(C(=O)NCC(=O)Nc3ccc(F)c(F)c3)nc2n1 | i | -0.04
Cc1cc(=O)n2nc(N3CCCC(C(=O)N4CCc5ccccc54)C3)sc2n1 (stereo unspecified) | i | -0.93
Cc1cccc(NC(=O)c2cc3n(n2)C(C(F)(F)F)CC(c2ccc4c(c2)OCO4)N3)c1 (stereo unspecified) | i | -0.31
COc1ccc(NC(=O)CSc2nnc(Cc3ccccc3)c(=O)n2N)cc1 | i | 2.8
COc1ccccc1C(c1nnnn1Cc1ccco1)N1CCN(c2cccc(C)c2C)CC1 (stereo unspecified) | i | 3.1
Nc1nnc(N2CCCCCC2)s1 | i | -0.61
Cc1cc(C)c(NC(=O)c2cc(=O)c3ccccc3o2)c(C)c1 | i | 1.4
CC(=O)N1N=C(c2ccccc2)CC1c1ccccc1 (stereo unspecified) | i | -1
COc1ccc(-c2csc(N3C(=N)SCC3=O)n2)cc1 | i | 0.33
O=C(O)CCN1C(=O)C2C3c4ccccc4C(c4ccccc43)[C@@H]2C1=O (stereo partly specified) | i | 0.45
COc1cc2cc(C(c3nnnn3C3CCCC3)N3CCCCCC3)c(=O)[nH]c2cc1OC (stereo unspecified) | -11* | -0.6*
COc1ccc(OC)c(C(=O)NC(CC(N)=O)c2ccc(NCC3CC3)c([N+](=O)[O-])c2)c1 (stereo unspecified) | i | 1.3
CCOc1ccc(C(=O)O/N=C(\N)c2ccc([N+](=O)[O-])cc2)cc1OCC | i | 0.1
S=C(Nc1cc(Cl)cc(Cl)c1)NC1CCN(Cc2ccccc2)CC1 | i | -0.44

# Six entries from above, with the structure last.
KCNQ2 inh	KCNQ2 inh baseline	Molecule
i	3.3	C1=CC2CC1CC2CNCc1ccco1 (stereo unspecified)
i	-0.22	COC(=O)CN1C(=O)[C@H]2[C@@H](C3CC3)N3C(=O)CN(Cc4ccc(-c5ccccc5)cc4)C(=O)[C@@]3(Cc3ccccc3)[C@H]2C1=O
i	2.3	CC(=O)Nc1ccc(Sc2ncnc3scc(-c4ccccc4)c23)cc1
i	0.08	CC(OC(=O)c1cc(Br)ccc1O)C(=O)NCc1ccc2c(c1)OCO2 (stereo unspecified)
-8.1*	1*	COc1ccc(OC)c(/C(C)=N\NC(=O)c2cc3cc(Cl)ccc3n2C)c1
i	1.1	CCN1CCc2c(OCC(=O)N3N=C(c4cccs4)CC3c3ccc(F)cc3)cccc2C1=O (stereo unspecified)

# (cont.)
mol | KCNQ2 inh | KCNQ2 inh baseline
COc1cccc(/C=N/NC(=O)C(=O)N2CCCC2)c1O | i | 0.47
CCCCNC(=O)N(O)C1N(/N=C/c2ccccc2F)C(=S)SC1(C)C (stereo unspecified) | i | 0.03
O=C(Cc1ccccc1F)NC1CCCc2ccccc21 (stereo unspecified) | i | -0.97
Cc1ccccc1NC(=O)CN(C)S(=O)(=O)c1ccc2c(c1)n(C)c(=O)c(=O)n2C | i | 0.83
CN(CC(=O)Oc1ccc(-c2nnco2)cc1)S(=O)(=O)c1ccc(F)cc1 | i | -1.3
Cc1ccc2c(c1)C1CN(C)CCC1N2C(=O)c1ccccc1NS(=O)(=O)c1cccc(C(F)(F)F)c1 (stereo unspecified) | i | 2.7
O=C(Nc1cc(S(=O)(=O)N2CCOCC2)ccc1Cl)C1CCC1 | i | -0.87
COc1ccc(C(C)=O)cc1CN1C(=O)NC(c2ccccc2)(c2ccccc2)C1=O | i | 0.2
CN1CCN(S(=O)(=O)c2ccc(Oc3ccc(F)cc3Br)nc2)CC1 | i | -1.3
FC(F)(F)c1cccc(Cn2nnnc2-c2cc(Cl)cc(Cl)c2)c1 | i | 1.2
CC(C)=CCc1c(O)ccc2c1OC(c1ccc(O)c(O)c1)CC2=O (stereo unspecified) | -8.7* | 0.76*
CC(=O)NCCc1ccc(C(=O)Cn2cnc3ccccc3c2=O)cc1 | i | 1.8
COC(=O)c1ccc(NC(CC(C)C)C(=O)OC)c([N+](=O)[O-])c1 (stereo unspecified) | i | -0.67
CCOC(=O)CSc1nnc(NCC(=O)OC(C)C)c(=O)[nH]1 | i | -0.05
Cc1ccc(Nc2nnc(-c3ccc(N4CCOCC4)c([N+](=O)[O-])c3)c3ccccc23)cc1 | i | 0.82
Nc1c(/C=C2/C=CC(=O)C(O)=C2)c(=O)nc2sc(CC(=O)N3CCCCC3)nn12 | i | 2.8
CCOc1cc(-c2c(C#N)c(=O)[nH]c3c2c(C)nn3-c2ccc(F)cc2)ccc1O | i | 0.34
CC(=O)Nc1ccc(NC(=O)CSc2nnc(-c3cccs3)n2N)cc1 | i | 2
COc1ccccc1N=C1NC(=O)/C(=C/c2ccc(N(C)C)cc2)S1 | i | 1.3
O=C(O)C1C2C=CC(C2)C1C(=O)NCc1ccccc1F (stereo unspecified) | i | 0.58
COc1ccc(S(=O)(=O)N(CC(=O)Nc2ccc3c(c2)OCO3)c2ccccc2OC)cc1 | i | -0.67
CC(C)C(NC(=O)c1ccc(C(C)(C)C)cc1)C(=O)OCC(=O)NC(=O)Cc1ccccc1 (stereo unspecified) | i | -0.03
O=C(Nc1cc(S(=O)(=O)N2CCOCC2)ccc1N1CCCC1)c1cccnc1Cl | i | 0.15
O=C1CC(NNC(=O)c2ccccc2)C(=O)N1 (stereo unspecified) | i | 1.9
CCc1ccc2[nH]c(=O)c(CN(Cc3ccccc3OC)C(=O)Nc3ccccc3OC)cc2c1 | i | 0.51
Cc1ccc(C)n1-n1cnc2sc(-c3ccccc3)cc2c1=O | i | 0.68
O=C(O)CN1C(=O)/C(=C/c2ccsc2)SC1=S | i | 1.7
COC(=O)c1ccc(Cn2cnc3cnccc32)cc1 | i | 0.45
Cc1ccc(/C=C2/SC(=S)N(c3ccc(S(=O)(=O)Nc4nccs4)cc3)C2=O)cc1 | i | 1.3
OCCC1CN(CC#Cc2ccccc2)CCN1Cc1ccccc1F (stereo unspecified) | i | 1.7
COC(=O)c1c(NC(=O)C2COc3ccccc3O2)sc2c1CCN(Cc1ccccc1)C2 (stereo unspecified) | i | 1.8
O=C(CCCOc1ccc(Cl)cc1)NCC1CCCO1 (stereo unspecified) | i | -0.52
COc1ccc2c(c1)C(=O)N(c1ccc(C)cc1C)C(=O)C2 | i | 0.55
CN(CCNC(=O)C1CCN(S(=O)(=O)N2CCOCC2)CC1)CCc1ccccc1 | i | -0.17
Cc1ccc([N+](=O)[O-])c(OCc2ncc(Cl)n2C)c1 | i | -1.3
Cc1cc(-n2c(C)cc(C(=O)COC(=O)CN=C3NS(=O)(=O)c4ccccc43)c2C)no1 | i | 0.66
O=C(CCc1c[nH]c2ccccc12)N[C@@H](Cc1c[nH]c2ccc(O)cc12)C(=O)O | i | 0.18
COc1ccccc1N1CCN(C(=O)C2CC(=O)N(c3ccccc3)C2)CC1 (stereo unspecified) | i | 0.46
CCCNc1nc(Nc2ccc(C)cc2)nc(N2CCCC2)n1 | i | 2.1
COc1cc(NC(=O)COC(=O)CSc2cc(C)ccc2C)c(C)cc1[N+](=O)[O-] | i | 1.7
COc1ccc(Cl)cc1NC(=O)CN1CCC(n2nnc3cc(F)ccc32)CC1 | i | -0.04
COC(=O)c1ccc(NC(=O)c2ccc(NS(=O)(=O)c3cccc4cccnc34)cc2)cc1 | i | 0.67
O=C(O)c1ccccc1C(=O)N1N=C2/C(=C/c3cccc([N+](=O)[O-])c3)CCCC2C1c1cccc([N+](=O)[O-])c1 (stereo unspecified) | i | 3
CCCc1nnc(SCC(=O)NC2CC2)n1CC | i | -0.14
Cn1c(SCC(=O)Nc2ccccc2)nc2ccccc2c1=O | i | 0.01
CC1(C)CC(=O)C(C2=NC3(CCCCC3)Cc3ccccc32)=C(O)C1 | i | -1.9
COC(CNC(=O)C1CC(=O)N(CCc2ccc(C)cc2)C1)OC (stereo unspecified) | i | -2.4
Cc1cc(NS(=O)(=O)c2ccc(NC(=O)c3oc4ccccc4c3C)cc2)no1 | i | 2.4
O=C(NCCCN1CCOCC1)C(=O)NCC1OCCCN1S(=O)(=O)c1cc(F)ccc1F (stereo unspecified) | i | 2.1
O=C(c1sc2ccccc2c1Cl)N1CCN(CCc2ccccn2)CC1 | i | 2.9

# (more compounds)
mol | KCNQ2 inh | KCNQ2 inh baseline
CSCCC1(C(=O)O)NC(c2ccccc2O)C2C(=O)N(C(C)C)C(=O)C21 (stereo unspecified) | i | 0.61
COC(=O)C1CCN(C(=O)CSc2nc3ccc(OC)cc3[nH]2)CC1 | i | 0.36
CCOC(=O)c1c(NC(=O)c2ccn(CC)n2)sc2c1CCCC2 | i | -3.4
CN(C)CCNC(=O)C(=O)NCC1OCCN1S(=O)(=O)c1ccc([N+](=O)[O-])cc1 (stereo unspecified) | i | 2.9
O=C(Nc1nc(-c2ccccc2)cs1)c1cccs1 | i | -0.01
CCCCC1CCC(C(=O)N(CC(C)C)c2c(N)n(CCCC)c(=O)[nH]c2=O)CC1 (stereo unspecified) | i | 1.3
CCCCOc1ccc(C(=O)Nc2ccc(CN3CCOCC3)cc2)cc1 | i | -0.72
Cc1cccc(N2Cc3ccccc3C2=NC(=O)c2ccc(Cl)nc2)c1 | i | -0.28
CCC(C)(C)n1nnnc1C(c1ccncc1)N1CCC(C)CC1 (stereo unspecified) | i | -0.37
N/C(=N\c1nc2ccccc2o1)NC(=O)/C=C/c1ccccc1 | i | -0.26
COc1cc(OC)c(OC)cc1CNCCNC(=O)c1ccco1 | i | -1.1
